Assay outcomes from PubChem.
Vaccinia stage: blocks a specific stage of Vaccinia orthopoxvirus infection, primary screen, cell-based, single point; 89,000 tested, 0.01% active; Vaccinia-infected cells, mCherry/Venus stage reporter fluorescence; hits give low values; some inactives read as strong as hits; AID 1053133, 2014; activity change (mCherry), % (test concentration not listed);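 active = mCherry past -33% and 40 or more points under the early reporter, replicates agreeing; inconclusive = past -33% without that gap or agreement; tested in A549 cells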;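 note: scaled between vehicle wells and reference inhibitor wells; 23 nL library stock went into each well; one replicate is shown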
Vaccinia stage Venus: further read-out of Vaccinia stage, marked with its call; activity change (Venus), %; measured here: Venus reporter, other viral stage;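 negative = less Venus signal; first of two replicates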
* hit, by the source's call; ? = inconclusive; / = no result given; & = joins results of further samples.

compound	Vaccinia stage Venus	Vaccinia stage
Cc1noc(C)c1NC(=O)N(C)C[C@@H]1Oc2c(NS(=O)(=O)c3cn(C)cn3)cccc2C(=O)N([C@H](C)CO)C[C@H]1C	3	3
CN1CCN(C(=O)C[C@H]2C[C@H]3c4cc(NC(=O)Nc5ccc(F)cc5)ccc4O[C@H]3[C@@H](CO)O2)CC1	10	10
COc1ccc(CN2C[C@@H](C)[C@@H](OC)CN(C)C(=O)c3ccc(NC(C)=O)cc3OC[C@H]2C)cc1	-1	0
C[C@H](CO)N1C[C@H](C)[C@@H](CN(C)S(=O)(=O)c2ccc(F)cc2)OCCCC[C@H](C)Oc2ccc(NS(=O)(=O)c3ccccc3)cc2C1=O	/	?
O=C(Cc1ccccc1)N1C[C@@H]2[C@H](c3ccccc31)[C@H](CO)N2C(=O)c1ccc(F)cc1	-5	-3
C[C@@H]1CN([C@H](C)CO)S(=O)(=O)c2ccc(-c3cccc(F)c3)cc2O[C@@H]1CN(C)S(=O)(=O)c1ccccc1	-22	-33
C[C@H](CO)N1C[C@H](C)[C@@H](CN(C)C(=O)Nc2ccc(C(F)(F)F)cc2)Oc2ccc(NC(=O)NC3CCCCC3)cc2CC1=O	-15	-18
O=C(C[C@H]1CC[C@@H]2[C@H](COC[C@H](O)CN2CC2CCOCC2)O1)NCC1CCCCC1	3	1
C[C@H](NC(=O)C[C@@H]1CC[C@@H](NC(=O)C2CCOCC2)[C@H](CO)O1)c1ccccc1	1	14
COc1cccc(-c2cnc3c(c2)C(=O)N([C@H](C)CO)C[C@H](C)[C@@H](CN(C)Cc2ccncc2)O3)c1	3	10

compound	Vaccinia stage Venus	Vaccinia stage
O=S(=O)(c1ccccc1F)N1CCCCN2[C@H](C1)[C@H](c1ccc(-c3ccncc3)cc1)[C@@H]2CO	-4	12
O=C(C[C@@H]1C=C[C@@H](NS(=O)(=O)c2ccc(F)cc2)[C@H](CO)O1)N1CCc2ccccc2C1	12	-1
CCCNC(=O)N1[C@H](C#N)[C@H](c2ccccc2-c2ccc(OC)cc2)[C@@H]1CO	-13	-23
Cc1ccccc1-c1ccc(C2[C@H]3CNC[C@@H]2N3Cc2cncnc2)cc1 (stereo not given in full)	15	9
CCCN1[C@H](C(=O)N[C@H](C)c2ccccc2)[C@@H](CO)[C@@H]2Cn3c(ccc(-c4ccc(F)cc4)c3=O)[C@@H]21	/	?
C[C@@H]1CN([C@@H](C)CO)C(=O)Cc2cc(NC(=O)Nc3ccc4c(c3)OCO4)ccc2O[C@@H]1CN(C)Cc1ccncc1	0	7
COCC(=O)N(C)C[C@@H]1Oc2cc(C#C[C@H](C)O)ccc2S(=O)(=O)N([C@@H](C)CO)C[C@@H]1C	6	8
C[C@@H]1CCCCO[C@@H](CN(C)C(=O)c2ccncc2)[C@H](C)CN([C@@H](C)CO)C(=O)c2cc(NC(=O)C3CCCCC3)ccc2O1	2	5
C[C@H]1CCCCO[C@@H](CN(C)C(=O)Nc2cccc3ccccc23)[C@@H](C)CN([C@@H](C)CO)C(=O)c2cc(NS(=O)(=O)c3ccc(F)cc3)ccc2O1	11	16
Cc1ccc(-c2ccc3c(c2)O[C@H](CN(C)Cc2cccnc2)[C@H](C)CN([C@@H](C)CO)S3(=O)=O)cc1	/	?

compound	Vaccinia stage Venus	Vaccinia stage
C[C@@H]1CN([C@@H](C)CO)C(=O)c2cc(NS(=O)(=O)c3ccc(Cl)cc3)ccc2O[C@@H](C)CCCCO[C@H]1CN(C)C(=O)C1CCCCC1	/	?
COCC(=O)Nc1ccc2c(c1)OC[C@@H](C)N(CC1CCCCC1)C[C@H](C)[C@@H](OC)CN(C)C2=O	-12	-21
C[C@H]1CN([C@@H](C)CO)C(=O)c2c(c3ccccc3n2C)-c2ccccc2CO[C@@H]1CN(C)C(=O)Nc1ccccc1C(F)(F)F	/	?
O=C(C[C@@H]1C[C@@H]2c3cc(NC(=O)NC4CCCCC4)ccc3O[C@@H]2[C@@H](CO)O1)NCCc1ccccc1	6	13
CCC(=O)Nc1ccc2c(c1)OC[C@H](C)N(Cc1ccccc1C(=O)O)C[C@@H](C)[C@@H](OC)CN(C)C2=O	5	0
C[C@@H]1CN([C@H](C)CO)C(=O)c2cc(NC(=O)Nc3ccccc3)ccc2O[C@@H](C)CCCCO[C@H]1CN(C)C	2	6
O=C(Nc1cccc(F)c1)N1CCCCN2[C@H](CO)[C@H](c3ccc(-c4ccccc4F)cc3)[C@H]2C1	/	?
C[C@@H]1CN([C@H](C)CO)C(=O)c2cc(NS(=O)(=O)c3ccccc3)ccc2O[C@@H]1CN(C)Cc1ccc(C(=O)Nc2ccccc2N)cc1	4	13
C[C@H]1CN([C@@H](C)CO)C(=O)c2cccc(NC(=O)C3CCOCC3)c2O[C@H]1CN(C)C(=O)NC1CCCCC1	-4	3
C[C@H](CO)N1C[C@H](C)[C@H](CN(C)Cc2ccc(-c3ccccc3)cc2)Oc2c(NC(=O)c3ccc(-c4nccs4)cc3)cccc2C1=O	-19	-31

compound	Vaccinia stage Venus	Vaccinia stage
Cc1noc(C)c1NC(=O)Nc1ccc2c(c1)C(=O)N([C@@H](C)CO)C[C@@H](C)[C@H](CN(C)CC1CC1)OCCCC[C@H](C)O2	11	52
C[C@H]1CN([C@@H](C)CO)C(=O)c2cccc(NS(=O)(=O)c3ccccc3)c2O[C@@H]1CN(C)Cc1ccccc1	10	19
CCCNC(=O)N1CC2(CN(CC3CCCCC3)C2)c2c(n(C)c3cc(OC)ccc23)[C@H]1CO	-12	-15
CCCNC(=O)N(C)C[C@H]1Oc2ncc(-c3ccc(C(=O)N(C)C)cc3)cc2C(=O)N([C@@H](C)CO)C[C@H]1C	4	13
COc1ccc(CN(C)C[C@H]2Oc3ccc(NC(=O)Nc4ccc5c(c4)OCO5)cc3C(=O)N([C@@H](C)CO)C[C@H]2C)cc1	-12	-21
COCC(=O)N1CCCCN2[C@@H](CO)[C@@H](c3ccc(C#Cc4cccnc4)cc3)[C@@H]2C1	13	26
N#C[C@H]1N[C@H](CO)[C@@H]1c1ccc(C#Cc2ccccc2F)cc1	7	-4
Cc1ccc(S(=O)(=O)N(C)C[C@@H]2OCCCC[C@H](C)Oc3ccc(NC(=O)Nc4c(C)noc4C)cc3C(=O)N([C@H](C)CO)C[C@@H]2C)cc1	-2	2
Cc1ccc(S(=O)(=O)NCC[C@@H]2CC[C@H](NC(=O)c3cnccn3)[C@H](CO)O2)cc1	-1	-11
O=C(c1ccccc1)N1[C@@H](CO)[C@@H](c2ccccc2)C12CN(Cc1nccs1)C2	4	1

compound	Vaccinia stage Venus	Vaccinia stage
Cc1noc(C)c1NC(=O)Nc1ccc2c(c1)CC(=O)N([C@H](C)CO)C[C@@H](C)[C@@H](CN(C)S(=O)(=O)c1cccs1)O2	3	13
CCC(=O)N1C[C@@H]2[C@H](c3ccccc31)[C@H](CO)N2C(=O)CC	-4	-2
N#Cc1ccc(-c2ccc([C@H]3[C@@H](CO)N4C(=O)CNC[C@@H]34)cc2)cc1	5	6
C[C@@H]1CCCCO[C@H](CN(C)C(=O)Nc2ccc(C(F)(F)F)cc2)[C@H](C)CN([C@H](C)CO)C(=O)c2cc(NC(=O)Nc3cccc4ccccc34)ccc2O1	12	13
O=C(N[C@@H]1CC[C@H](CCn2cc(-c3ccccn3)nn2)O[C@@H]1CO)c1ccncc1	-4	-3
Cc1ccc(S(=O)(=O)N[C@@H]2CC[C@H](CCn3cc(C4CCCCC4)nn3)O[C@H]2CO)cc1	-8	-13
C/C=C/c1ccc(C2[C@H]3CNC[C@@H]2N3C(=O)NCCC)cc1 (stereo not given in full)	5&-11	15&1
CC(C)NC(=O)N(C)C[C@@H]1Oc2ccc(NC(=O)Nc3ccc(F)cc3)cc2CC(=O)N([C@@H](C)CO)C[C@@H]1C	12	8
C[C@@H](C(=O)N(C)C[C@H]1OCc2ccccc2-c2c(n(C)c3ccccc23)C(=O)N([C@@H](C)CO)C[C@@H]1C)c1ccccc1	/	?
CC(C)c1cn(CC[C@H]2CC[C@@H](NS(=O)(=O)c3ccc(Cl)cc3)[C@@H](CO)O2)nn1	-4	-7

compound	Vaccinia stage Venus	Vaccinia stage
O=C(NCC[C@H]1CC[C@H](NS(=O)(=O)c2ccc(Cl)cc2)[C@H](CO)O1)Nc1ccc(F)cc1	-10	-13
Cc1noc(C)c1NC(=O)N(C)C[C@@H]1Oc2ccc(NC(=O)Nc3ccc(F)cc3)cc2CC(=O)N([C@@H](C)CO)C[C@H]1C	13	19
C[C@H](CO)N1C[C@H](C)[C@H](CN(C)S(=O)(=O)c2cn(C)cn2)Oc2cc(C#Cc3cccc(F)c3)ccc2S1(=O)=O	/	?
O=C(c1ccncc1)N1C[C@H]2[C@@H](c3ccccc31)[C@H](CO)N2C(=O)c1ccccc1F	13	1
C[C@@H]1CN([C@H](C)CO)C(=O)c2cccc(NC(=O)Nc3ccc(F)cc3)c2O[C@H]1CN(C)C(=O)Nc1ccc(F)cc1	-4	0
COCC(=O)Nc1ccc2c(c1)C(=O)N(C)[C@@H]1CC[C@@H](CC(=O)NCCc3ccccc3)O[C@H]1CO2	6	9
CO[C@H]1CN(C)C(=O)c2cc(NC(=O)c3ccc(F)cc3)ccc2OC[C@@H](C)N(C(=O)CN(C)C)C[C@H]1C	1	12
O=C([C@@H]1N[C@@H]2c3ccc(-c4ccc(F)cc4)c(=O)n3C[C@@H]2[C@H]1CO)N1CCc2ccccc2C1	-5	-15
COc1cccc(C(=O)Nc2ccc3c(c2)OC[C@@H](C)N(C)C[C@H](C)[C@@H](OC)CN(C)C3=O)c1	8	16
O=C(N[C@@H]1C=C[C@@H](CC(=O)N2CCOCC2)O[C@H]1CO)c1ccc2c(c1)OCO2	1	1

compound	Vaccinia stage Venus	Vaccinia stage
C[C@@H]1CN([C@H](C)CO)C(=O)c2cc(NS(C)(=O)=O)ccc2O[C@H]1CN(C)Cc1ccccc1	5	3
CCC(=O)N1CC2(C1)[C@@H](c1ccccc1)[C@@H](CO)N2C(=O)c1ccccc1	2	3
C[C@H]1CN([C@@H](C)CO)C(=O)c2cc(NS(=O)(=O)c3cn(C)cn3)ccc2O[C@@H]1CN(C)Cc1ccccc1	19	13
COc1ccc(-c2ccc([C@@H]3[C@H]4CN(C(=O)C5CCCC5)CC(=O)N4[C@H]3CO)cc2)cc1	/	?
C[C@H]1CN([C@@H](C)CO)S(=O)(=O)c2ccc(C#Cc3ccc(F)cc3)cc2O[C@H]1CN(C)S(C)(=O)=O	/	?
COc1cccc(S(=O)(=O)N[C@@H]2CC[C@@H](CCNC(=O)Cc3ccncc3)O[C@H]2CO)c1	14	16
COc1ccc(CNC(=O)C[C@@H]2C[C@@H]3c4cc(NC(=O)C5CCC5)ccc4O[C@@H]3[C@H](CO)O2)cc1	12	15
CCCNC(=O)N1CC2(C1)[C@H](c1ccccc1)[C@H](CO)N2CC1CCOCC1	4	4
COC(=O)N(C)C[C@H]1OCc2cn(nn2)CCCC(=O)N([C@H](C)CO)C[C@@H]1C	5	5
COc1ccc(S(=O)(=O)Nc2ccc3c(c2)OC[C@@H](C)N(C(=O)NC(C)C)C[C@@H](C)[C@H](OC)CN(C)C3=O)cc1	2	12

compound	Vaccinia stage Venus	Vaccinia stage
COCC(=O)Nc1ccc2c(c1)C(=O)N(C)[C@H]1CC[C@@H](CC(=O)NCC3CC3)O[C@@H]1CO2	5	11
CCC(=O)N(C)C[C@H]1Oc2cc(C#CC3(O)CCCC3)ccc2S(=O)(=O)N([C@H](C)CO)C[C@H]1C	7	4
C[C@@H]1CN([C@@H](C)CO)C(=O)Cc2cc(NC(=O)Nc3ccc(C(F)(F)F)cc3)ccc2O[C@@H]1CN(C)C(=O)Nc1ccc(C(F)(F)F)cc1	/	?
O=C(C1CCCC1)N1CC2(C1)[C@@H](c1ccccc1)[C@@H](CO)N2Cc1ccc(Cl)cc1	-25	-34
C[C@@H]1CN([C@@H](C)CO)C(=O)c2cccc(NC(=O)c3ccncc3)c2O[C@@H]1CN(C)C	2	7
COc1ccc2c3c(n(C)c2c1)[C@@H](CO)N(Cc1ccc(F)cc1)CC31CCN(CC2CCOCC2)CC1	-23	-24

This is a subset; the hit share may differ from the screen's.
